MenB inh – Mtb MenB enzyme inhibition. P9WNP5. MenB enzyme assay, absorbance read-out; some hits fall short of the stated cut. inhibition, %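 (about 12 µg/mL by stock and volumes)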. 0.43% of 100,000 active;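 active = mean of two replicates above 30%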;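 note: 0% = no compound and 100% = wells with inactive enzyme; the first replicate is given; strong numbers were not always called active; inactives centre near -10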
Target sequence (P9WNP5 whole entry, looked up): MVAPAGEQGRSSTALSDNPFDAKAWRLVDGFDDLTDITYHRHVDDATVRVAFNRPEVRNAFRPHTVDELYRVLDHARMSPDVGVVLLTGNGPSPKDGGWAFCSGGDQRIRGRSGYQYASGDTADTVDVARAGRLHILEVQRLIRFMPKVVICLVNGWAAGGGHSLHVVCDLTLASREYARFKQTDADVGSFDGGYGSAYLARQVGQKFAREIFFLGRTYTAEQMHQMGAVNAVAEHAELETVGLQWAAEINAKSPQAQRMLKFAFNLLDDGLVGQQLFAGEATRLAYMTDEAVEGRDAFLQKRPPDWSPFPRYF
MbtI inh – blocks the Mycobacterium tuberculosis siderophore enzyme MbtI; purified MbtI enzyme, fluorescence intensity read-out; inhibition, %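 (about 17 µg/mL by stock and volumes)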; 0.89% of 100,000 active;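 active = above 50% in both replicates, above 80% if mildly self-fluorescent; inactive = the rest, strongly fluorescent compounds included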;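 note: 0% = mean of negative and 100% = mean of positive controls; one replicate is shown; some compounds called inactive have numbers as strong as hits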
Polio RdRp inh – inhibitors of poliovirus RNA polymerase binding and polymerization; 0.66% of 150,000 active; % elongation, % (compound at 16.7 µg/mL); P03300; poliovirus polymerase elongation, fluorescence polarization; hits give low values; in the data active = % elongation below about 90%; note: some results filed as inactive read as strong as hits
Target sequence (P03300 1749-2209 limits assumed): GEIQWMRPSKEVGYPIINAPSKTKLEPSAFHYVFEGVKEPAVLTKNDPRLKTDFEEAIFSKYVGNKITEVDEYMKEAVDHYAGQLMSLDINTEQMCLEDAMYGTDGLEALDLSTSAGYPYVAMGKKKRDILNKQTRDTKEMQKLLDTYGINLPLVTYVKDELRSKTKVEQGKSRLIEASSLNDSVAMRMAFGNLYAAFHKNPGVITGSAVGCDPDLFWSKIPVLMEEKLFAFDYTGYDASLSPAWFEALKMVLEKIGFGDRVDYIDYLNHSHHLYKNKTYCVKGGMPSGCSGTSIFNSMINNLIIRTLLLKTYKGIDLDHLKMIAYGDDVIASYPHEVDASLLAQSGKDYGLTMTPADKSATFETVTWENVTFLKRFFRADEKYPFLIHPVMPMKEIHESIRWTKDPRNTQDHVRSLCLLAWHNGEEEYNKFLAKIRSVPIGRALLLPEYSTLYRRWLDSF
Polio RdRp inh intensity – also measured in Polio RdRp inh; calls as there; % elongation; measured here: total intensity read-out; formula for this scale not given here;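 total fluorescence in place of polarization; lower means less elongation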
An asterisk follows results filed as active; i = inactive; / = not tested or not shown; & = joins results of further samples.

no.	molecule	MenB inh	MbtI inh	Polio RdRp inh	Polio RdRp inh intensity
1	c1ccc(CN2CCN(CC3CCCCC3)CC2)cc1	-15	/	97	96
2	CC(C)=N/N=c1\scc(-c2ccccc2)n1Cc1ccco1	-35	-8	103	101
3	Cc1ccc(C(=O)OCC(=O)C(C)(C)C)cc1	/	-12	102	110
4	Cc1cc(F)ccc1S(=O)(=O)Nc1ccccc1C(=O)OCC(=O)NCc1ccco1	-25	-18	102	103
5	c1ccc(-c2noc(COc3cccc4ccccc34)n2)cc1	-11	/	101	108
6	CC(/C=C/c1cccc(Oc2ccc(F)cc2)c1)N(O)C(N)=O (configuration not stated)	3	-20	103&102	103&102
7	CN1c2ccccc2Oc2nnc(Cl)cc21	7	-144	93	94
8	COCC(C)n1c(C)cc(/C=C(\C#N)C(=O)O)c1C (configuration not stated)	-30	16	96	98
9	CNC(=S)N/N=C/c1ccc(-c2ccccc2C(=O)OC)o1	-23	-414	98	103
10	CN(C)CCOC(=O)c1sc2ccccc2c1Cl	-38	/	102	106

Overlap with the part before: 3 compounds; new compounds follow.
no.	molecule	MenB inh	MbtI inh	Polio RdRp inh	Polio RdRp inh intensity
8	COCC(C)n1c(C)cc(/C=C(\C#N)C(=O)O)c1C (configuration not stated)	-30	16	96	98
9	CNC(=S)N/N=C/c1ccc(-c2ccccc2C(=O)OC)o1	-23	-414	98	103
10	CN(C)CCOC(=O)c1sc2ccccc2c1Cl	-38	/	102	106
11	CCOc1ccc2[nH]c(=O)c(-c3nc4cccc(C)n4c3NCc3ccco3)cc2c1	3	17	105	108
12	Cn1c(Cl)cnc1CSc1nnc(-c2ccc3c(=O)n4c(nc3c2)CCCCC4)o1	12	18	102	97
13	CCOC(=O)c1cnn(C(=O)c2ccc(-n3c(C)ccc3C)cc2)c1N	-9	-8	107	100
14	Cc1nn(Cc2ccc(C(=O)Nc3sc4c(c3C(=O)OC(C)C)CCCC4)o2)c(C)c1Cl	-27	-22	102	105
15	CCN(CC)C(CN)c1ccccc1 (configuration not stated)	14	0	103	103
16	CCCNC(=O)NC1CCCc2ccccc21 (configuration not stated)	-20	3	102	103
17	OC(c1ccccc1)C1CN(Cc2ccccc2)CCC1(O)c1ccccc1 (configuration not stated)	-19	-7	100	102
18	CC(=O)Nc1cccc(C(=O)OCC(=O)N2c3ccccc3CC2C)c1 (configuration not stated)	/	-8	103	104
19	CCOc1ccc(-c2cccc(NC(=O)c3c(OC)cccc3OC)c2)nn1	-26	8	106	107
20	CN1CCN(C(=O)c2ccc3c(c2)NC(=O)/C(=C/c2ccccc2)S3)CC1	-6	7	100	102
21	O=C1C2C3c4ccccc4C(c4ccccc43)C2C(=O)N1CN1CCOCC1 (configuration not stated)	2	-12	101	102
22	CC(=O)Nc1sc2c(c1-c1nc3ccccc3s1)CCCC2	-1	7	100	102
23	O=C(CSc1ncccc1C(=O)Nc1ccnn1C1CCCCC1)Nc1ccc2c(c1)OCO2	3	4	106	109
24	O=C(O)C1CCN(Cc2ccc(Cl)cc2)CC1	-28	6	103	103
25	CCn1c(SCCN2CCCC2)nnc1C1CCCN(C(=O)c2ccc3c(c2)OCO3)C1 (configuration not stated)	-23	-6	103	103
26	CC(NC(=O)c1ccc(F)cc1)C(c1ccccc1)N1CCN(C)CC1 (configuration not stated)	/	-7	102	106
27	CCCN1CCC(NC(=O)Nc2cccc3ccccc23)CC1	-18	-29	107	99
28	O=C(COc1cccc2ccccc12)N1CCc2ccccc2C1	/	-4	104	105
29	COc1cccc(N2CCN(C(=O)C3C4C=CC5(CN(Cc6ccccc6Cl)C(=O)C35)O4)CC2)c1 (configuration not stated)	-7	-10	100	104
30	Cn1c(SCC(=O)c2ccccc2)nnc1C1COc2ccccc2O1 (configuration not stated)	-14	-4	99	98
31	CN(C)CCCNc1cn[nH]c(=O)c1Cl	22	22	98	101
32	CCc1ccccc1NC(=O)NC1CCCC1	-12	-14	102	101
33	CCOc1ccc(-c2cc(C(F)(F)F)c(C#N)c(SCC)n2)cc1	-22	51	103	109
34	O=C(NCc1nnc(SCc2ccc(Br)cc2)n1-c1ccc(F)cc1)c1ccco1	-3	4	99	102
35	CN(c1ncnc2sc(-c3ccccc3)cc12)C1CCS(=O)(=O)C1 (configuration not stated)	-4	32	105	110
36	CN1CCC(N(C)C(=O)c2cc3cc(Br)cc(Br)c3o2)CC1	7	9	99	109
37	Cc1ccc(CC(C#N)Sc2nc3ccccc3o2)cc1 (configuration not stated)	-21	16	97	103
38	Cc1ccc(C(=O)OCC(=O)N2CCc3ccccc32)c(C)c1	/	-3	101	106
39	O=C(O)c1ccc(CN2C(=O)c3ccc(C(=O)O)cc3C2=O)cc1	-20	-2	103	94
40	CC1(c2ccccc2)NC(=O)N(CN2CCN(S(=O)(=O)/C=C/c3ccccc3)CC2)C1=O (configuration not stated)	-27	-5	102	88
41	CCn1cc(C(=O)N2CCN(c3ccc(F)cc3)CC2)c2cc(OC)c(OC)cc2c1=O	-20	9	100	101
42	CC(C)(c1ccc(OCC2CO2)cc1)c1ccc(OCC2CO2)cc1 (configuration not stated)	-15	-25	101&100	102&101
43	c1cc2c(cc1-c1cnc3n1CCC3)OCCO2	/	-39	103	107
44	CNC(=S)NCc1ccco1	-28	0	109	107
45	CCS(=O)(=O)N1CCN(c2ccccn2)CC1	-11	-212	103	102
46	CCN1CCN(C(=O)C(C)Sc2nnc(-c3cccc(Cl)c3)n2CC)CC1 (configuration not stated)	-7	-2	97	108
47	CCCCOC(=O)Nc1ccc(N2CCOCC2)cc1	-23	-4	103	101
48	CC(NC(=O)c1c(O)c2ccccc2[nH]c1=O)c1ccccc1 (configuration not stated)	-8	-4	101	101
49	CCOC(=O)c1c(C)[nH]c(C)c1C#N	12	-2	100	98
50	CSc1nc2n(n1)C(C)C1=C(CCCC1=O)N2 (configuration not stated)	-11	-140	102	105
51	CC1CN(C(=O)C(C)N2CCc3ccccc3C2)CC(C)O1 (configuration not stated)	9	25	103	97
52	COc1cc(SC)ccc1C(=O)Oc1ccccc1C	-2	-7	103	108
53	Cc1ccc(Cl)cc1NC(=O)CC(C(=O)O)N1CCN(C)CC1 (configuration not stated)	-2	-4	105	104
54	COc1cc(NC(=O)CNC(C)C)cc(OC)c1	-21	9	106	107
55	COc1ccc(C2SCC(=O)N2c2ccc(Br)cc2)cc1 (configuration not stated)	/	-6	102	102
56	Cc1ccc(CNC(=O)C2CCN(S(=O)(=O)c3ccc4nc(-c5ccccc5)[nH]c4c3)CC2)cc1	-4	i	100	105
57	c1ccc2c(c1)OC1(CCCCC1)O2	-39	-5	104	111
58	COc1ccccc1CNc1nc2c(-c3cccc(C)c3)nnn2c2ccccc12	-31	41	100	103
59	Cc1onc(-c2c(Cl)cccc2Cl)c1C(=O)ON1C(=O)CCC1=O	7	-4	92	94
60	CSCCSc1nnc(C)n1C1CCCCC1	-20	10	105	109

Next section:
no.	molecule	MenB inh	MbtI inh	Polio RdRp inh	Polio RdRp inh intensity
61	CC(CC(=O)N1CCc2ccccc2C1)CC1=NS(=O)(=O)c2ccccc2N1 (configuration not stated)	-32	13	103	105
62	O=C(Nc1cccc(Oc2ccccc2)c1)C1CCC1	-9	-22	100	97
63	Cc1ccc2nc(-c3ccc(NC4=CC(=O)CCC4)cc3)sc2c1	/	90	103	99
64	O=C(Nc1nnc(Cc2ccccc2)s1)c1ccncc1	-24	2	105	104
65	O=C(Nc1cccc(C(F)(F)F)c1)N1CCN(Cc2ccccc2)CC1	-21	/	105	109
66	N[C@@H](CO)CSCc1ccccc1	-5	-11	107	105
67	CC(C)c1ccc(-n2c(=O)[nH]c3ccccc3c2=O)cc1	-25	46	73*	78*
68	O=C(CC(c1ccccc1)c1ccccc1)Nc1ccc(Cl)cc1	-9	/	109	108
69	CC1CC(C)CN(C(=O)/C=C/c2ccc(Cl)cc2)C1 (configuration not stated)	-19	-5	102	104
70	Cc1c(C(=O)Sc2ccccc2)sc2nc(C(F)(F)F)nn12	-22	11	102	100

Down the list, from the results shown:
Compounds 62–69 in Polio RdRp inh intensity: 97, 99, 104, 109, 105, 78*, 108, 104

More entries:
no.	molecule	MenB inh	MbtI inh	Polio RdRp inh	Polio RdRp inh intensity
71	O=C1CCCC(O)=C1C=NCc1cccnc1	-39	-6	99	112
72	Cc1ccc(O)c(C2=Nc3ccccc3N=C(c3ccco3)C2)c1	-12	4	103	107
73	COc1ccc2cc(C#N)c(N3CCCN(C(=O)/C=C/C(=O)O)CC3)nc2c1	-64	86	102	101
74	O=C(O)CC1(CC(=O)NCc2ccccc2F)CCCCC1	-7	-4	99	104
75	CCN(C(=O)CSc1ncn[nH]1)c1cccc2ccccc12	/	5	103	97
76	N#CC1=C(SCc2ccccc2)NC(=O)C(C#N)C12CCCC2 (configuration not stated)	-18	/	106	108
77	CC(Oc1ccccc1)C(=O)N1c2ccccc2CC1C (configuration not stated)	-3	-1	102	101
78	NC(=O)C1CCN(C(=O)c2cccc(CN3C(=O)c4ccccc4C3=O)c2)CC1	-19	9	102	102
79	O=C1CC(c2nc3ccccc3n2C/C=C/c2ccccc2)CN1c1ccc(Cl)cc1 (configuration not stated)	-12	-5	100	99
80	CC(C)(C)C(=O)CSc1nc2ccccc2o1	/	-5	102	106

One compound at a time, as listed above. Order of screens: MenB inh | MbtI inh | Polio RdRp inh | Polio RdRp inh intensity
Cc1ccc(O)c(C2=Nc3ccccc3N=C(c3ccco3)C2)c1 reads -12 | 4 | 103 | 107
COc1ccc2cc(C#N)c(N3CCCN(C(=O)/C=C/C(=O)O)CC3)nc2c1 reads -64 | 86 | 102 | 101

Continuation:
no.	molecule	MenB inh	MbtI inh	Polio RdRp inh	Polio RdRp inh intensity
81	CCC(C(=O)Nc1nnc(C2CC2)s1)c1ccccc1 (configuration not stated)	-25	-5	100	101
82	O=C(Nc1cc(C(F)(F)F)ccc1N1CCCCC1)c1ccncc1	11	-6	101	102
83	CCC(=O)C1=C(c2ccccc2)N(C(=O)CC)n2cnnc2S1	-17	-9	104	100
84	CCCCn1c(=O)[nH]c(=O)c2c1nc(-c1cccs1)c(=O)n2C	-15	-47	47	246
85	O=c1[nH]n(-c2ccc(S(=O)(=O)N3CCCC3)cc2)c(=O)c2ccccc12	13	-6	99	103
86	Cc1c(N=C/C=C2\N(C)c3ccccc3C2(C)C)c(=O)n(-c2ccccc2)n1C	-66	-5	102	108
87	O=C(C1CSC2(c3ccc(F)cc3)CCC(=O)N12)N1CCCCCC1 (configuration not stated)	-3	-34	104	112
88	CC(C)NS(=O)(=O)c1ccc(Cl)s1	2	5	99	106
89	NC(C(=O)O)c1ccc(CCCC(=O)O)s1 (configuration not stated)	0	11	102	102
90	CCOc1ccc2[nH]c(=O)c(CN(CCOC)C(=O)Nc3ccccc3C)cc2c1	-81	72	103	104
91	CC(=O)N1c2ccccc2NC(=O)C1CC(=O)Nc1cccc(C)c1 (configuration not stated)	26	5	102	101
92	C=C(CC)C(=O)c1ccc(OCC(=O)O)c(Cl)c1Cl	-2&-3	12&-2	97&99	100&105
93	O=C(C1CCCO1)N1CCN(C/C=C/c2ccccc2)CC1 (configuration not stated)	-8	/	107	121
94	O=C(C1Cc2ccccc2CN1C(=O)c1ccco1)N1CCc2ccccc21 (configuration not stated)	-11	14	108	110
95	CCc1cccc2c(C#N)cn(CC(=O)N(CC)CC)c12	22	1	99	102
96	N/C(=N\OC(=O)c1ccc2ncsc2c1)c1ccccc1	-10	6	104	106
97	COc1ccc2ccccc2c1C=Nc1ccccc1C#N	-14	/	109	109
98	CC1CCCC(C)N1C(=O)c1cc2cccnc2n(Cc2ccccc2)c1=O (configuration not stated)	-21	2	109	107
99	CCOC(=O)c1cc2c(=O)n3cc(C)ccc3nc2n(Cc2ccco2)c1=N	-40	189	103	102
100	C=CCNC(=O)CCN1c2ccccc2Sc2ccccc21	4	6	104	97
101	Cc1oc(-c2ccccc2)nc1CSc1nncn2c1cc1occc12	-7	23	100	102
102	O=C(Cn1c(N2CCCCC2)nc2ccccc21)c1ccccc1	/	-15	104	107
103	O=C1OC2(CCCC2)OC(=O)C1=Cc1c[nH]c2ccccc12	-135	0	100	103
104	CC1CC(O)NN=C1c1ccc2nc(COc3ccccc3O)[nH]c2c1 (configuration not stated)	-5	5	103	107
105	COc1cccc(C(=O)Nc2cccc(N=C(N)CCC(=O)O)c2)c1	4	-2	101	104
106	Cc1nn(C)c(C)c1P(=S)(N(C)C)N(C)C	-11	55	92	92
107	COc1ccc2cc(CN(Cc3nnnn3Cc3ccccc3)C3CCCC3)c(=O)[nH]c2c1	-53	-14	105	101
108	N#Cc1c(SCC(=O)Nc2nccs2)nc(N2CCOCC2)c2c1CCCC2	-15	6	103	105
109	N#Cc1cc(C#N)c(SCC(=O)N2CC(=O)Nc3ccccc32)nc1N	-37	9	118	131
110	CC(N)Cc1cn(Cc2ccccc2)c2ccccc12 (configuration not stated)	-37	15	106	105
111	NNC(=O)c1cc2ccccc2cc1O	-39	6	101	104
112	Nc1ncnc2c1cnn2Cc1ccccc1	-2	8	103	101
113	Cc1cc(NS(=O)(=O)c2ccc3[nH]c(=O)ccc3c2)ccc1Br	-21	-4	100	102
114	c1ccc(-c2nc(Sc3ncnc4c3cnn4-c3ccccc3)n[nH]2)cc1	-5	17	99	100
115	N#Cc1ccccc1Cn1c(=O)n(CCCC(=O)NC2CCN(Cc3ccccc3)CC2)c(=O)c2ccccc21	15	1	98	104
116	N#Cc1ccc(NC(=O)COC(=O)c2cccc(S(=O)(=O)N3CCCC3)c2)cc1	-7	-12	100	107
